Source: PubChem BioAssay
Cruzain inh Det = inhibitors of Trypanosoma cruzi cruzain with detergent; P25779; purified cruzain, Z-FR-AMC fluorescence, 0.01% Triton; Potency, µM, without a hit: max response, negative = inhibition, hits mostly inhibitors; 0.43% of 200,000 active; AID 1478;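 also: plate controls were neutral wells for no effect and buffer without enzyme for full effect; nearly all actives have a fitted effect of over 40% in size; top concentration of the series not given in the record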
Target sequence (P25779 123-467 limits assumed): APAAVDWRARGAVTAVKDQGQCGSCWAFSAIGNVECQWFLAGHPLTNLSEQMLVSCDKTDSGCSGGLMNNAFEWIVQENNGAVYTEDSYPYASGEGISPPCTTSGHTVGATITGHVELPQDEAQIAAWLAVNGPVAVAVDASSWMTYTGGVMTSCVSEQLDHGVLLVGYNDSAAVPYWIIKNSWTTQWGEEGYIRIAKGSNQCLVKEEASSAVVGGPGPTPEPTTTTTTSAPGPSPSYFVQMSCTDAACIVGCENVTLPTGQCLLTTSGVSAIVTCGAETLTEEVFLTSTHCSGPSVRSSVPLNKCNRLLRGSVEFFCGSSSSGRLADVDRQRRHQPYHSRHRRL
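Sodium acetate buffer (100 mM, pH 5.5) containing 5 mM DTT and 0.01% Triton X-100 hosted 1.5 nM cruzain and test compound for 15 min at room temperature. Cleavage of 2 uM Z-FR-AMC was then tracked by fluorescence.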
Cruzain inh noDet = cruzain (T. cruzi) inhibition without detergent; P25779; purified cruzain, Z-FR-AMC fluorescence, no detergent; Potency, µM, for the others: max response, negative = inhibition, actives largely listed as inhibitors; 2.3% of 200,000 active;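 also: plate controls were enzyme without inhibitor for no effect and buffer without enzyme for full effect; nearly all actives have a fitted effect of over 40% in size; top concentration of the series not given in the record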
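Purified cruzain at 1.5 nM, pre-incubated 15 min with compound at room temperature in 100 mM sodium acetate pH 5.5, 5 mM DTT, 0.00005% Triton X-100. Reaction started with 2 uM Z-FR-AMC; AMC fluorescence increase over 60 s gives rate.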
SARS PLP yeast = inhibitors of SARS-CoV papain-like protease in yeast; S. cerevisiae expressing SARS-CoV PLpro, growth rescue; control for the full effect not named in the record; Potency, µM (titrated, usually from 32.9 µM), for inactives: at the highest dose activity, positive = growth rescue; 0.19% of 330,000 active; AID 485353; active means well fitted rising curve with a large enough effect; inconclusive means small, poorly fitted or top-dose-only effect; inactive means no such curve, though single readings can be large or run the other way; also: 0% is about no effect; nearly all actives have a fitted effect of over 55% in size; growth read by luminescence after 48 h
NS1 inh = blocks influenza NS1 protein function; Potency, µM (doses to about 46.1 µM), for the others: top-dose activity, positive = more growth; S. cerevisiae slowed by influenza A NS1, growth recovery by OD600; 0.4% of 270,000 active; active means well fitted rising curve with a large enough effect; inconclusive means small, poorly fitted or top-dose-only effect; inactive means no such curve, though single readings can be large or run the other way; also: nearly all actives have a fitted effect of over 50% in size
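A cell-based growth assay was used: compounds that relieve NS1-induced slow growth of budding yeast raise OD600. Assay medium was yeast nitrogen base with ammonium sulphate and -URA supplement, pH 6.0, with 2% galactose.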
StopGo reporter = FMDV 2A StopGo reporter, luciferase signal. human cells with a luciferase reporter of 2A StopGo recoding; control for the full effect not named in the record. Potency, µM (series often up to 57.9 µM), without a hit: top-dose signal change, negative = less light. 1.2% of 410,000 active. AID 1159524; active = well fitted falling curve with a large enough effect; inconclusive = small, poorly fitted or top-dose-only effect; inactive = no such curve, though single readings can be large or run the other way; tested in HEK293T cells; also: % is scaled to controls: 0 for no effect and ±100 for the full control effect; nearly all actives have a fitted effect of over 45% in size; luciferase light after 4 h
Marburg entry inh = blocks Marburg virus binding to or entry into cells | Marburg virus pseudotyped entry inhibition, cell reporter; control for the full effect not named in the record; about a third of the inactives were read at about 46 µM | Potency, µM (doses to about 37.8 µM), without a hit: at the highest dose activity change, negative = inhibition, actives largely listed as inhibitors | 1.8% of 300,000 active | AID 540276; active = well fitted inhibition curve with a large enough effect; inconclusive = small, poorly fitted or top-dose-only effect, or effect the other way; inactive = flat fitted curve, though single readings scatter; tested in HEK293 cells; about a fifth of its hits are not listed in these tables; also: % is scaled to controls: 0 for no effect and ±100 for the full control effect; luciferase read-out
Lassa entry inh = inhibitors of Lassa virus binding or cell entry | Lassa virus pseudotype entry inhibition, cell reporter; control for the full effect not named in the record | Potency, µM (highest dose often 37.9 µM), inactives show top-dose activity change, negative = inhibition, hits mostly inhibitors | 1.2% of 300,000 active; active means well fitted inhibition curve with a large enough effect; inconclusive means small, poorly fitted or top-dose-only effect, or effect the other way; inactive means flat fitted curve, though single readings scatter; tested in HEK293 cells; also: % is scaled to controls: 0 for no effect and ±100 for the full control effect; nearly all actives have a fitted effect of over 50% in size; luciferase read-out
RE007 growth inh = less growth of the S. pombe RE007 Vpr strain; S. pombe RE007 Vpr strain, BacTiter-Glo ATP luminescence, 24 h; control for the full effect not named in the record; Potency, µM (highest dose often 92.2 µM), for inactives: at the top dose activity change, negative = less growth; 0.21% of 360,000 active; active = well fitted falling curve with a large enough effect; inconclusive = small, poorly fitted or top-dose-only effect; inactive = no such curve, though single readings can be large or run the other way;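 also: % is scaled to controls: 0 for no effect and ±100 for the full control effect; nearly all actives have a fitted effect of over 50% in size; the assay follows cell death caused by Vpr and the record does not say whether a fall means rescue or toxicity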
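Fission yeast strain RE007, carrying one chromosomally integrated HIV-1 vpr copy, was seeded at OD 0.01 in PMG+AL medium with 23 nL pinned compound. After 24 h at 30 °C and 99% humidity, viability was read by BacTiter-Glo luminescence.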
Numbers without * were called inactive; ? = inconclusive; nt = no result given; & = joins results of further samples; [ ] = another dose, or the depositor's remark. Unless noted, calls follow the shape of the dose curve; as a rule, active = well fitted curve in the direction sought with a large enough effect; inconclusive = small, poorly fitted or top-dose-only effect, or another doubt; inactive = no such curve, though single readings can be large; an effect the other way counts as inactive or inconclusive. Potency is read from the fitted curve at half-maximal effect.

SMILES	Cruzain inh Det	Cruzain inh noDet	SARS PLP yeast	NS1 inh	StopGo reporter	Marburg entry inh	Lassa entry inh	RE007 growth inh
Cc1ccc(CN2CCN(/N=C/c3cc(Br)cc(Br)c3O)CC2)cc1	-8.3%	2%	-43%	-14%	-26%	-3%	0%	-28%
S=c1[nH]nc(-c2ccc(Br)cc2)n1-c1ccc(Br)cc1	nt	nt	2%	27%	-12%	nt	nt	-4%
COc1ccc(OC(C)C(=O)NC2CCCCCC2)cc1 (centres undefined)	nt	nt	nt	nt	6%	-13%[46.1 µM]	-15%[46.1 µM]	-7%
COc1ccc(N2C(=O)C3C(C2=O)C2C=CC3C23CC3)c([N+](=O)[O-])c1 (centres undefined)	nt	nt	-1%	nt	-11%	2%[46.1 µM]	-1%[46.1 µM]	-2%
O=[N+]([O-])c1ccc(-n2ccnc2)cc1	nt	nt	0%	4%	-9%	6%[46.1 µM]	8%	-23%
O=C(NNC(=S)Nc1ccc(F)cc1)c1cccc([N+](=O)[O-])c1	nt	nt	-1%	-4%	27%	?	?	6%
CCOCCCNC(=O)c1cc(-c2ccc(Br)s2)nc2ccccc12	nt	nt	-3%	2%	3%	-3%	-1%	-6%
COc1cccc(NC(=O)CCC(=O)Nc2cc(OC)c(NC(=O)c3cccs3)cc2OC)c1	nt	nt	16%	2%	-17%	-24%	4%	-8%
Cc1ccc2oc(=O)c3cc(C(=O)NCCCN4CCc5ccccc5C4)sc3c2c1	-9.4%	?	-4%	-3%	-4%	-5%	-3%	-3%
COc1cc(OC)cc(-c2nc(=S)n3ccsc3n2)c1	nt	nt	-2%	3%	0%	?	4%	4%
O=[N+]([O-])c1cc(Cl)ccc1N1CCOCC1	nt	nt	0%	4%	-11%	-14%	-1%	-9%
CCOC(=O)c1[nH]c(C)c(C(=O)C(C)C)c1C	1.9%	6%	1%	-2%	63%[activator]	3%	?	3%
O=C(COC(=O)c1ccc(CO)cc1)Nc1ccc(OC(F)F)cc1	nt	nt	0%	nt	0%	28%[14.2 µM]	14%	24%
COc1ccc2c(c1)c(=O)oc1cc(OCC(=O)NCC3CCC(C(=O)O)CC3)ccc12 (centres undefined)	nt	nt	0%	-11%	14%	nt	nt	10%
C[C@H](NS(=O)(=O)c1ccccc1)C(=O)OCC(=O)NC(=O)Nc1ccc2c(c1)OCCO2	-14%	-22%	-9%	1%	45%[activator]	?	18%	0%
COCCNC(=S)N/N=C(\C)c1cc2ccccc2o1	-13%	-11%	?	-7%	-6%	?	?	-11%
COc1ccc(NC(=O)C2CC(=O)N/C(=N/N=C/c3ccco3)S2)cc1 (centres undefined)	nt	nt	0%	11%	-10%	23%[46.1 µM]	-13%[46.1 µM]	nt
CCc1nonc1NC(=O)c1oc2ccc(Br)cc2c1C	0.6%	12%	-2%	2%	13%&27%	6%&6%[46.1 µM]	1%[46.1 µM]	-7%
O=C(Nc1cccc(C(F)(F)F)c1)c1ccc2nc(-c3ccco3)c(-c3ccco3)nc2c1	14µM*	?	0%	5.6µM*	?	-11%	-7%	-2%
CCOC(=O)c1sc(=S)n(-c2cc(F)ccc2F)c1N	-10.0%	1%	-1%	-49%	?	13%	-8%	0%

(cont.)
SMILES	Cruzain inh Det	Cruzain inh noDet	SARS PLP yeast	NS1 inh	StopGo reporter	Marburg entry inh	Lassa entry inh	RE007 growth inh
CCOc1ccc(S(=O)(=O)NCCSCc2ccco2)cc1	1.6%	2%	-4%	-10%	nt	22%	-27%	8%
CCc1n[nH]c(=S)n1/N=C/c1cc(Br)c(OC)cc1OC	-5.5%	-3%	15%	11%	-13%	-3%	17%	-9%
CC(NC(=O)COC(=O)c1ccccc1SCC(=O)N1CCCC1)c1ccccc1 (centres undefined)	nt	nt	-1%	nt	-8%	-16%	-13%	2%
O=C(Cn1c(SCC(=O)NC2CCCC2)nnc1-c1ccncc1)Nc1ccc2c(c1)OCO2	-1.0%	13%	2%	-12%	19%	1%&-22%	13%	-1%
CCC(CC)C(=O)NCCc1cc2cc(C)c(C)cc2[nH]c1=O	3.6%	7%	3%	-36%	-21%	nt	nt	1%
CCOC(=O)c1sc(NC(=O)CSc2nc(C)cc(-c3ccccc3)n2)c(C#N)c1C	-12%	?	-8%	3%	13%	14%	0%	-4%
O=C(CN1C(=O)NC2(CCCC2)C1=O)Nc1cccc(C(F)(F)F)c1	nt	nt	2%	2%	11%	24%	16%	0%
COC(=O)C1=C(C)N(CCC2=CCCCC2)C(=O)C1	-1.6%	7%	-1%	24%	-2%	-21%[46.1 µM]	-5%	-11%
CC1CCN(c2c(NCC3CCC(C(=O)N4CCc5ccccc5C4)CC3)c(=O)c2=O)CC1 (centres undefined)	0.5%	-18%	2%	4%	-6%	nt	nt	4%
Cc1cc(C(=O)NCc2ccccc2)c(=O)[nH]c1C	-4.5%	-5%	2%	2%	-8%	0%	8%	0%[3.69 µM]
O=C(COc1ccccc1Cl)OCc1cc(=O)n2nc(-c3cccs3)sc2n1	-1.5%	-5%	nt	nt	10%	nt	-17%[46.1 µM]	nt
Cc1ccc(NC(=O)Nc2nc(-c3ccc(C)s3)cs2)cc1	3.7%	25µM*	1%	12%	-15%	0%	?	9%
COCCCNC(=O)CCCn1c(=O)[nH]c2ccccc2c1=O	2.8%	-6%	-7%	2%	-14%	1%	-3%	-4%
COCCNC(=O)C(c1ccccc1F)N(C(=O)C(=O)NC1CCCC1)C1CCCCC1 (centres undefined)	nt	nt	-1%	1%	-1%	-16%[46.1 µM]	?	18%
CC1CCc2sc(C(=O)NNC(=S)NC3CC3)cc2C1 (centres undefined)	nt	nt	11%	2%	39%[activator]	8%[46.1 µM]	14%[46.1 µM]	2%
COC(=O)c1ccc2c(=O)n(CC3CCCO3)c(SCC(=O)Nc3ccccc3Cl)nc2c1 (centres undefined)	-0.8%	2%	1%	11%	7%	?	18%	-3%
O=C(NCCc1cccs1)C1CC(c2ccccc2F)=NO1 (centres undefined)	nt	nt	0%	-2%	32%[activator]	nt	nt	-2%
CCOC(=O)N(CC)c1ccc(C(O)(C(=O)OC)C(F)(F)F)cc1 (centres undefined)	?	17%	-1%	4%	-1%	-10%	?	5%
CCc1ccc(CNCCSc2nnnn2C)cc1	5.4%	-16%	8%	-5%	6%	0%	17%	-3%
Cc1cccc(N(CC(=O)NC(C)(C)C)C(=O)CNC(=O)c2cccs2)c1	nt	nt	0%	-3%	7%	0%	11%[46.1 µM]	15%

Given with each value named: entries from further up
CC(NC(=O)COC(=O)c1ccccc1SCC(=O)N1CCCC1)c1ccccc1 (centres undefined)
  Cruzain inh Det = nt
  Cruzain inh noDet = nt
  SARS PLP yeast = -1%
  NS1 inh = nt
  StopGo reporter = -8%
  Marburg entry inh = -16%
  Lassa entry inh = -13%
  RE007 growth inh = 2%

O=C(Cn1c(SCC(=O)NC2CCCC2)nnc1-c1ccncc1)Nc1ccc2c(c1)OCO2
  Cruzain inh Det = -1.0%
  Cruzain inh noDet = 13%
  SARS PLP yeast = 2%
  NS1 inh = -12%
  StopGo reporter = 19%
  Marburg entry inh = 1%&-22%
  Lassa entry inh = 13%
  RE007 growth inh = -1%

Other records
SMILES	Cruzain inh Det	Cruzain inh noDet	SARS PLP yeast	NS1 inh	StopGo reporter	Marburg entry inh	Lassa entry inh	RE007 growth inh
COc1cc2c(cc1OC)C(c1ccc(O)cc1)NCC2 (centres undefined)	nt	nt	1%	2%	-2%	11%	6%	-9%
O=C(/C=C/c1ccc([N+](=O)[O-])cc1)N(c1ccccn1)C1CCCCC1	nt	nt	-9%	nt	?	30%[46.1 µM]	-2%	-4%
O=C(CN1CCN(c2nc(-c3ccccc3)cs2)CC1)NCc1ccc2c(c1)OCO2	-4.9%	?	-7%	-55%	?	4%	-5%	7%
C[C@H](C(=O)CC(=O)OC(C)(C)C)[C@H](O)c1ccccc1	nt	nt	0%	-10%	-8%	nt	nt	4%
CCOc1ccc(C(=O)CCC(=O)Nc2ncccc2O)cc1	nt	nt	0%	nt	48%[activator]	?	-23%	8%
CCOc1ccc(C(=O)NCc2nc(-c3ccc(Cl)cc3)no2)cc1OCC	-2.1%	-5%	nt	nt	0%	?	-1%[46.1 µM]	nt
Cc1cccc(C)c1NC(=O)CN1C(=O)c2ccccc2Sc2ncccc21	-1.1%	?	nt	nt	-17%	nt	-11%[46.1 µM]	nt

Four of these compounds, reformatted:
CCOc1ccc(S(=O)(=O)NCCSCc2ccco2)cc1
  Cruzain inh Det = 1.6%
  Cruzain inh noDet = 2%
  SARS PLP yeast = -4%
  NS1 inh = -10%
  StopGo reporter = nt
  Marburg entry inh = 22%
  Lassa entry inh = -27%
  RE007 growth inh = 8%

CCc1n[nH]c(=S)n1/N=C/c1cc(Br)c(OC)cc1OC
  Cruzain inh Det = -5.5%
  Cruzain inh noDet = -3%
  SARS PLP yeast = 15%
  NS1 inh = 11%
  StopGo reporter = -13%
  Marburg entry inh = -3%
  Lassa entry inh = 17%
  RE007 growth inh = -9%

CC(NC(=O)COC(=O)c1ccccc1SCC(=O)N1CCCC1)c1ccccc1 (centres undefined)
  Cruzain inh Det = nt
  Cruzain inh noDet = nt
  SARS PLP yeast = -1%
  NS1 inh = nt
  StopGo reporter = -8%
  Marburg entry inh = -16%
  Lassa entry inh = -13%
  RE007 growth inh = 2%

O=C(Cn1c(SCC(=O)NC2CCCC2)nnc1-c1ccncc1)Nc1ccc2c(c1)OCO2
  Cruzain inh Det = -1.0%
  Cruzain inh noDet = 13%
  SARS PLP yeast = 2%
  NS1 inh = -12%
  StopGo reporter = 19%
  Marburg entry inh = 1%&-22%
  Lassa entry inh = 13%
  RE007 growth inh = -1%
